Compound activity deposited in PubChem by several laboratories.
GC-A act = GC-A stimulated cGMP production enhancers – HEK293 GC-A cells, cGMP TR-FRET, EC30 ANP, primary screen | 0% at EC30 ANP, 100% saturating ANP | activation, % at 10 µM | hit rate 0.14% among 370,000 | AID 1671463, 2021; in the data active = activation above about 40%
SMARCA2 activ = SMARCA2 (BRM) function activators, primary screen, cell-based, luminescence, high throughput | MG213 cells, MMTV-luciferase reporter, dexamethasone, overnight | activation, % at 9.1 µM | hit rate 1% among 370,000; in the data active = activation above about 7.8%;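 note: 0% = vehicle wells and 100% = reference activator wells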
FXN GAA850 act = FXN promoter activators, primary screen, cell-based, luciferase luminescence, HEK293 lucGAA850. HEK293 lucGAA850 FXN promoter luciferase reporter, 24 h; percent of 10 µM SAHA response. activation, % at 6 µM. hit rate 0.56% among 360,000. AID 540364, 2011;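 active = activation above the average of all compounds screened plus 3 SD, cutoff fixed separately per campaign, cut at about 7.5% in these data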;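 note: 0% = DMSO wells and 100% = 10 µM SAHA wells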
sPLA2-III inh = human group III sPLA2 inhibitors, primary screen, biochemical, QFRET, BODIPY PC-A2 liposome substrate; Group 3 secretory phospholipase A2 (Homo sapiens), Q9NZ20; QFRET BODIPY PC-A2 liposome hydrolysis, fluorescence; hit rate 0.56% among 370,000; AID 743126, 2013; inhibition, % at 12.2 µM;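 active = inhibition above mean plus 3 SD of compounds lying within the high and low control bounds, cut at about 19% in these data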;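 note: 0% = median of test compound wells and 100% = no enzyme DMSO wells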
Target sequence (Q9NZ20 whole entry, looked up): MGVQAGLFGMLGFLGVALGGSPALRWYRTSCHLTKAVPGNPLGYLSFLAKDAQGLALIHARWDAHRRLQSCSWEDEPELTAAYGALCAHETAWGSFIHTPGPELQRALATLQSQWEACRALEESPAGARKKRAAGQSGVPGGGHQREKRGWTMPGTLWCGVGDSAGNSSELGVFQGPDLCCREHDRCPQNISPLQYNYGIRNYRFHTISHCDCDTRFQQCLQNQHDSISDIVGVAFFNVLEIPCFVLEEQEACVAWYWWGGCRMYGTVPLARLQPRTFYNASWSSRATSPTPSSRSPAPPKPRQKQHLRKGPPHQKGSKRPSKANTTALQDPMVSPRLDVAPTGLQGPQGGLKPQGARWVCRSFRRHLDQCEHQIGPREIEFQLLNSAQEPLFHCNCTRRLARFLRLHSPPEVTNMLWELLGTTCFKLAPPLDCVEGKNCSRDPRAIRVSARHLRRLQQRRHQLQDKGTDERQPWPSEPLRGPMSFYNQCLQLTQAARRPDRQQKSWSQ
proKLK7 act = proKLK7 zymogen activators, primary screen, biochemical, fluorescence intensity. purified proKLK7, EDANS-DABCYL substrate fluorescence; 100% is mature enzyme control, 0% vehicle. activation, % at 7 µM. hit rate 0.9% among 370,000. AID 652039, 2013;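 active = activation above the mean of all tested compounds plus 3 SD, computed per campaign excluding outliers beyond control limits, cut at about 13% in these data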
NPR2 activator = human GC-B receptor activators, primary screen, HEK293 GC-B cells, cGMP TR-FRET, EC30 CNP. hit rate 0.11% among 370,000. activation, % at 10 µM. Atrial natriuretic peptide receptor 2 (Homo sapiens), P20594. 0% at EC30 CNP, 100% saturating CNP. AID 1920062, 2024;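 active = activation at 10 µM reaching about 35% in either raw or pattern-adjusted values, limit read from the data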
Numbers without * were called inactive; · = not tested or not shown; & = joins results of further samples.

no.	smiles	GC-A act	SMARCA2 activ	FXN GAA850 act
1	Cc1nc(=O)c(-c2ccccc2)c(C)n1-c1ccc(O)c(C(=O)O)c1	-2	0	2.6
2	CC(C)c1ccc(NC(=O)c2cccc(Br)c2)cc1	0	6	8.2*
3	O=C(Nc1ccc(Br)cc1)Nc1ccccc1F	2	2	3.1
4	O=C(Nc1ccccc1)c1nc2ccccc2s1	6	0	3.3
5	O=[N+]([O-])c1cccc(-c2cn3ccccc3n2)c1	0	12*	5.5
6	CC1(C)[C@H](C(=O)O)N2C(=O)C[C@H]2S1(=O)=O	4	1	-1.8
7	CCCCc1oc2ccccc2c1C(=O)c1cc(I)c(OCCN(CC)CC)c(I)c1	-3	-3	2.4
8	O=C(/C=C/Nc1cccc([N+](=O)[O-])c1)c1ccco1	0	6	3.8
9	O=C(Nc1ccccn1)c1cc2cc([N+](=O)[O-])ccc2s1	-3	3	4.2
10	O=S(=O)(c1ccc2nc(SCc3cccc(Cl)c3)[nH]c2c1)N1CCOCC1	-5	-2	1.8

no.	sPLA2-III inh	proKLK7 act	NPR2 activator
1	13	-0.5	6
2	1	-0.8	0
3	-6	0.7	-1
4	4	0.0	-1
5	3	0.2	0
6	6	0.3	9
7	-9	0.2	3
8	1	-0.4	-2
9	5	-0.3	-1
10	-31	0.8	4

Entries shown so far containing a carbonyl joined to an NH by a bond outside any ring:
no.	smiles	GC-A act	SMARCA2 activ	FXN GAA850 act
2	CC(C)c1ccc(NC(=O)c2cccc(Br)c2)cc1	0	6	8.2*
3	O=C(Nc1ccc(Br)cc1)Nc1ccccc1F	2	2	3.1
4	O=C(Nc1ccccc1)c1nc2ccccc2s1	6	0	3.3
9	O=C(Nc1ccccn1)c1cc2cc([N+](=O)[O-])ccc2s1	-3	3	4.2

no.	sPLA2-III inh	proKLK7 act	NPR2 activator
2	1	-0.8	0
3	-6	0.7	-1
4	4	0.0	-1
9	5	-0.3	-1

(list continues)
no.	smiles	GC-A act	SMARCA2 activ	FXN GAA850 act
11	C[C@H]1[C@H](NC(=O)/C(=N\OC(C)(C)C(=O)O)c2csc(N)n2)C(=O)N1S(=O)(=O)O	0	-7	·
12	CN1CCN(C2=Nc3cc(Cl)ccc3Nc3ccccc32)CC1	-33	-3	0.6
13	Cn1c2nc(=O)[nH]c(=O)c-2cc2ccccc21	10	1	-1.5
14	Cc1sc2ncnc(SCC(=O)N3CCN(C(=O)c4ccco4)CC3)c2c1C	0	·	3.5
15	CC(C)NCC(O)COc1cccc2[nH]ccc12 (stereo not drawn)	·	·	-1.2
16	N#Cc1ccccc1CSc1nc(O)cc(=O)[nH]1	0	6	2.2
17	CC(C(=O)O)c1cccc(C(=O)c2ccccc2)c1 (stereo not drawn)	-1	-3	-1.1
18	C[C@H]1C[C@H]2[C@@H]3CCC4=CC(=O)C=C[C@]4(C)[C@@]3(F)[C@@H](O)C[C@]2(C)[C@@]1(O)C(=O)CO	-2	3	1.0
19	O=C(CSc1ccccc1)N1CCc2ccccc21	-1	7	3.4
20	Cc1nnc(SCC2=C(C(=O)O)N3C(=O)[C@@H](NC(=O)Cn4cnnn4)[C@H]3SC2)s1	2	1	-1.4&-0.9

no.	sPLA2-III inh	proKLK7 act	NPR2 activator
11	8	-0.3	-7
12	4	-0.1	-20
13	-1	70*	0
14	·	·	3
15	·	·	·
16	3	-0.1	-1
17	3	-0.2	-7
18	-4	-0.4	4
19	0	-0.2	1
20	5	-0.5	2

Next section:
no.	smiles	GC-A act	SMARCA2 activ	FXN GAA850 act
21	CCNC(=O)C1CC(=O)N(CC)C(=Nc2cc(Cl)c(O)c(Cl)c2)S1 (stereo not drawn)	0	-5	-2.4
22	COc1cc(Cc2cnc(N)nc2N)cc(OC)c1OC	-2&4	0&-5	1.2&-0.8
23	N[C@@H](Cc1cc(I)c(Oc2ccc(O)c(I)c2)c(I)c1)C(=O)O	0	-1	-0.2&0.6
24	O=C(c1ccc(Br)cc1)c1coc2ccc(O)cc12	5	0	1.5
25	NC[C@H](O)c1ccc(O)c(O)c1	2	-2	7.6*
26	CC(=O)NCCNC(=O)c1ccc(CSc2nc3ccccc3s2)cc1	1	-2	-2.3
27	Cc1cc(C(=O)COC(=O)c2ccc(F)cc2)c(C)n1C	3	3	2.2
28	O=C(CCCN1CCC(O)(c2ccc(Cl)cc2)CC1)c1ccc(F)cc1	-3	0	1.3
29	CCOC(=O)c1sc(NC(=O)c2ccc(Br)o2)cc1C	-1	-3	3.3
30	Cc1ccc2nc(NC(=O)c3ccc4c(c3)OCO4)sc2c1	5	4	-0.5

no.	sPLA2-III inh	proKLK7 act	NPR2 activator
21	3	0.1	0
22	-1&4	0.0&0.3	2&4
23	-12	-0.1	7
24	-36	0.0	-12
25	-6	7.5	-6
26	-9	-0.8	-1
27	7	-0.4	5
28	-19	0.8	-4
29	-23	1.4	8
30	5	-2.7	1

Next records
no.	smiles	GC-A act	SMARCA2 activ	FXN GAA850 act
31	O=C(CSCc1ccccc1)N1CCc2ccccc21	3	5	4.8
32	O=Cc1c(-c2ccc(Cl)cc2)oc2ccc(O)cc12	3	1	3.0
33	CCOC(=O)C1=C(C)NC(C)=C(C(=O)OC)C1c1cccc(Cl)c1Cl (stereo not drawn)	-20&-15	5&-3	2.1
34	COc1ccc(-c2cc3ncccc3cn2)cc1	-5	8.9*	3.8
35	O=C(O)C1=C[C@@H](O)[C@@H](O)[C@H](O)C1	2	-2	0.0
36	COCCc1ccc(OCC(O)CNC(C)C)cc1 (stereo not drawn)	4&3	5&1	0.3&0.7&-0.7
37	Cn1ncc(Br)c1C(=O)O	1	3	0.1
38	O=C(CSc1nc2ccccc2s1)c1ccc(O)cc1O	4	1	4.3
39	CCCC(=O)Nc1ccc(Cl)c(-c2nc3ncccc3o2)c1	-4	-5	0.1
40	Nc1ccn(C2CSC(CO)O2)c(=O)n1 (stereo not drawn)	-1	-2	·
41	COc1ccc(-c2cc3cc(F)ccc3cn2)cc1	6	2	2.8
42	c1ccc(-c2ccc3ccccc3n2)cc1	-5	0	4.7
43	Cc1ccc(-c2cn3cc([N+](=O)[O-])ccc3n2)cc1	8	1	2.1

no.	sPLA2-III inh	proKLK7 act	NPR2 activator
31	5	-0.8	-2
32	-22	1.2	-10
33	-19&1	-2.8&-2.6	-11&5
34	4	-0.6	-4
35	2	0.0	2
36	0&-3	0.7&0.7	2&3
37	5	0.7	-3
38	-70	0.4	-6
39	6	0.3	-2
40	4	-0.4	-1
41	2	0.2	1
42	14	-0.6	-6
43	13	0.2	0

By substructure: those above with a nitro group on carbon (4)
no.	smiles	GC-A act	SMARCA2 activ	FXN GAA850 act
5	O=[N+]([O-])c1cccc(-c2cn3ccccc3n2)c1	0	12*	5.5
8	O=C(/C=C/Nc1cccc([N+](=O)[O-])c1)c1ccco1	0	6	3.8
9	O=C(Nc1ccccn1)c1cc2cc([N+](=O)[O-])ccc2s1	-3	3	4.2
43	Cc1ccc(-c2cn3cc([N+](=O)[O-])ccc3n2)cc1	8	1	2.1

no.	sPLA2-III inh	proKLK7 act	NPR2 activator
5	3	0.2	0
8	1	-0.4	-2
9	5	-0.3	-1
43	13	0.2	0

Some entries already given, reduced to GC-A act and sPLA2-III inh:
nr	compound	GC-A act	sPLA2-III inh
21	CCNC(=O)C1CC(=O)N(CC)C(=Nc2cc(Cl)c(O)c(Cl)c2)S1 (stereo not drawn)	0	3
22	COc1cc(Cc2cnc(N)nc2N)cc(OC)c1OC	-2&4	-1&4

The list is partial; count on the stated rates, not on these rows.
